FGF22 binding: shifts melting point of recombinant human FGF22; calls only at 9.99 µM; 340,000 tested, 1.5% active; Q9HCT0; recombinant FGF22 thermal shift, SYPRO orange fluorescence; percent of sucrose octasulfate shift, DMSO zero;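 active = melting point raised past a set limit in the mean and every replicate; three in four hits are not shown here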
Target sequence (Q9HCT0 whole entry, looked up): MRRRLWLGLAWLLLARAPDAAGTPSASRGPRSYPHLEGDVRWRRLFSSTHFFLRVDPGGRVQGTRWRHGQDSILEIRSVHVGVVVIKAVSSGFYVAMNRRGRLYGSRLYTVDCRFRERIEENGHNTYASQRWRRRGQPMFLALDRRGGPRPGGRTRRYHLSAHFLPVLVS
Ecoli rRNA inh: inhibits bacterial ribosomal RNA function over humanized ribosomes | E. coli WT GFP vs humanized-ribosome RFP mutants, fluorescence, 24 h; active compounds read low; DMSO median 0, no signal -100 | GFP signal change (wild-type ribosome), % (concentration not given with the values) | 350,000 tested, 1.6% active;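 active = significant combined selectivity score with lowered wild-type GFP, culture density cut under 30%, mutant RFP and density less affected; inactive = any of these conditions unmet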; note: one replicate is shown; some compounds called inactive have numbers as strong as hits
UCH37 inh: inhibitors of human deubiquitinating enzyme UCH37; purified proteasome/UCH37, Ub-AMC cleavage fluorescence; inhibition, % (no concentration beside the values); 330,000 tested, 0.33% active; AID 588478;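 active = mean of two replicates above 20%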;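 note: 0% = compound-free wells with enzyme and 100% = wells lacking proteasome; stock transfer was 100 nL into about 20 µL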
Target sequence (Q9Y5K5 whole entry, looked up): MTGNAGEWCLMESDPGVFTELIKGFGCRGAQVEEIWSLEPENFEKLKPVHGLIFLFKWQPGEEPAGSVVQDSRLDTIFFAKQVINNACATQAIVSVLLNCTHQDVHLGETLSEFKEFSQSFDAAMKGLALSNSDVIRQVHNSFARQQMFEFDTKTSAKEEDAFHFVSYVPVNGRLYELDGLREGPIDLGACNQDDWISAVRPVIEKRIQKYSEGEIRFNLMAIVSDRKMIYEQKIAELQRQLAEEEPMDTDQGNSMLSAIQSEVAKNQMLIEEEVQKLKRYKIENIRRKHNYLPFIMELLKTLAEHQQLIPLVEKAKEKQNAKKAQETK
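Material: human UCH37 enzyme supplied as purified proteasome complex. Measure: % inhibition of Ub-AMC cleavage fluorescence. Medium: pH 7.4 Tris-HCl (50 mM) with ovalbumin, ATP-MgCl2, DTT. Times: 30 min preincubation with enzyme, 25 min cleavage at room temperature. Detection: AMC fluorescence intensity at 355/460 nm.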
A1 inh: inhibitors of the anti-apoptotic protein A1, read as caspase activation; caspase activation, % (concentration not given with the values); 330,000 tested, 0.066% active; MEF A1-2A-BIM cells, Caspase-Glo 3/7 luminescence, 3 h; percent of clofoctol response, vehicle zero;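 active = over half of replicate activation scores above 10%, or exactly half above 10 with the replicate mean above 10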;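 note: wells of about 30 µL received 50 nL stock; many hits fall short of the cut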
T cruzi inh: blocks replication of Trypanosoma cruzi; T. cruzi beta-gal in NIH3T3, luminescence, 90 h; inhibition, % (test concentration not listed); 300,000 tested, 1.4% active; AID 1885;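 active = mean inhibition across valid replicates above about 55%, limit read from the data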;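 note: signal also drops with host cell toxicity which is not excluded here; 0% = plate median of DMSO wells and 100% = zero luminescence signal; higher percent means less beta-gal luminescence so fewer parasites; stock transfer was 50 nL into about 50 µL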
Ecoli growth: E. coli growth inhibition. AID 1053175. Escherichia coli growth, OD600, 23 h; active compounds read low. 330,000 tested, 0.21% active. OD600 absorbance (no concentration beside the values);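 active = OD600 absorbance below the run mean of sample wells minus 3.6 SD, in any replicate, cut at about 0.56 in these data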;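 note: stock transfer was 300 nL into about 60 µL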
MLL AF4-AF9 inh: inhibitors of human MLL-AF4/AF9 interaction; 350,000 tested, 0.47% active; AlphaScreen, biotin-AF4 peptide binding to FLAG-AF9; inhibition, % at 10 µM; P42568;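 active = every replicate reaching a set inhibition limit, whatever the replicate mean, cut at about 25% in these data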;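 note: 0% = plate neutral control median and 100% = total signal loss; the record names both 10 and 1 µM as test concentration; the first replicate is given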
Target sequence (P42568 whole entry, looked up): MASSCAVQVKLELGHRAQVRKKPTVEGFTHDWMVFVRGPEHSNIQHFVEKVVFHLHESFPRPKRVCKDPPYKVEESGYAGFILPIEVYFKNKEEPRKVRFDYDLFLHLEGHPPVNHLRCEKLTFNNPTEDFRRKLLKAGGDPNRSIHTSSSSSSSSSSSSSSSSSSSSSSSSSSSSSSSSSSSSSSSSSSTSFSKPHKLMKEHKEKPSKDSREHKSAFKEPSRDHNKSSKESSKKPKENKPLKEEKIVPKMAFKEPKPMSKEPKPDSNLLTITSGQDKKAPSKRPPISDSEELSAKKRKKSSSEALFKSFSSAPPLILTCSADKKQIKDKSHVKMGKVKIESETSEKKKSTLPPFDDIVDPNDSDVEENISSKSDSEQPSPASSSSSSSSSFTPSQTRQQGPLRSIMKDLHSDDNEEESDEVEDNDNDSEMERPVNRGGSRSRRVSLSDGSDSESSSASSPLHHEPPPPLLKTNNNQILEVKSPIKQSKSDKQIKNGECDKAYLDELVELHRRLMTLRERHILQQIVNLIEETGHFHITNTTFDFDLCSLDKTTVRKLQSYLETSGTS
Beta cell apopt: beta cell apoptosis inhibition; AID 435005; INS-1E cytokine-induced death, ATP luminescence, 48 h; percent of positive-control rescue, neutral wells zero; 300,000 tested, 0.8% active; protection from apoptosis, % (no concentration beside the values);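 active = all replicates at 75% or more, or half of them and the mean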;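 note: 0% = cytokine-treated negative control wells and 100% = positive control rescue; higher means more ATP so stronger rescue from cytokine killing; wells of about 40 µL received 100 nL stock; the first replicate is given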
Ecoli rRNA inh OD600: also measured in Ecoli rRNA inh; calls as there; OD600 change, %; measured here: OD600 growth;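 optical density of the mix in the first replicate; 0 = DMSO median and -100 = no signal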
Ecoli rRNA inh RFP: further read-out of Ecoli rRNA inh, marked with its call; RFP signal change, %; measured here: RFP humanized mutant strains;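 first replicate; 0 = DMSO median and -100 = no signal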
* = called active by the depositor; i = inactive; . = no result given.

SMILES	FGF22 binding	Ecoli rRNA inh	Ecoli rRNA inh OD600	Ecoli rRNA inh RFP	UCH37 inh	A1 inh	T cruzi inh	Ecoli growth	MLL AF4-AF9 inh	Beta cell apopt
COc1ccc(CCN(C)C(=O)c2c(C)nn(CC(C)C)c2Cl)cc1OC	i	16	7	1.8	-2.0	-0.2	-15	0.71	3.0	-6
COc1cccc(N2CCN(C(=O)CN3C(=O)NC4(CCCC4)C3=O)CC2)c1	i	0	0	0.6	1.1	-0.3	9	0.73	-0.4	-3
C#CC1CCCCC1NC(=O)Nc1cnccc1C(F)(F)F (centres undefined)	i	9	10	-2.3	3.5	0.8	-20	0.67	-0.5	-3
Cc1ccccc1-c1cccc([C@@H]2C[C@H]3[C@H](CON3C)CN2Cc2cc(Cl)cc(Cl)c2)c1	i	19	11	3.4	5.9	.	.	0.73	1.3	.
O=c1ccccn1Cc1ccccc1F	.	8	4	-4.1	-5.9	0.0	2	0.75	.	4
Cn1c(=O)[nH]c(=O)c2c1nc(N1CCOCC1)n2CCSc1nnnn1-c1ccccc1	i	16	6	0.0	0.2	0.8	-6	0.69	-1.3	-10
Cc1oc(=O)c(NC(=O)c2ccccc2)cc1C(=O)c1ccccc1	.	.	.	.	2.1	-0.7	-4	0.7	.	-7
O=C(NCc1ccccc1Cl)C1CCC(=O)N(C2CCCC2)C1 (centres undefined)	i	4	7	0.7	0.4	0.0	-3	0.7	-5.6	-11
COC(=O)CNC(=O)c1nn(-c2cccc(OC)c2)c(=O)c2ccccc12	.	.	.	.	6.6	-0.7	.	0.78	.	-2
CCn1ccc(=O)c2cc3c(cc21)OCO3	.	.	.	.	1.2	-0.4	-5	0.68	.	-10
COc1ccc2oc(C(=O)OC(C)C(=O)NC3(C#N)CCCCC3)c(C)c2c1 (centres undefined)	i	5	-8	2.2	-47	0.4	-5	0.68	-4.7	5
O=C(Nc1ccccc1)C1=C[C@H](c2ccc3c(c2)OCO3)C[C@H](OCCCCO)O1	i	-11	-4	14	4.2	0.4	3	.	-1.3	-4
COc1ccc2c(CC(=O)Nc3c(C)n(C)n(-c4ccccc4)c3=O)coc2c1	.	.	.	.	-1.1	-0.3	-5	0.79	.	-11
CCNCc1ccc(OCc2ccccc2F)c(OC)c1	i	9	8	-2.9	1.3	-0.9	31	0.71	0.3	-3
CCn1cnc2c1c(=O)n(CC(=O)NN)c(=O)n2Cc1ccccc1	i	4	13	-7.2	-1.2	1.7	-3	0.67	-0.2	-1
CC(=O)NC(Nc1c(C)n(C)n(-c2ccccc2)c1=O)C(Cl)(Cl)Cl (centres undefined)	i	14	10	0.9	2.2	-0.7	-3	0.68	0.5	2
Cc1cccc2nc(CSc3nc4ccccc4[nH]3)cn12	i	-2	-2	2.0	0.2	-0.1	1	0.66	-2.3	0
CC(C)(C)c1ccc(-c2cc(C(=O)NNC(=O)Nc3ccccc3)c3ccccc3n2)cc1	.	.	.	.	1.4	-1.2	0	0.66	.	16
CCc1cccc(NC(=O)Cc2cn(C)c3ccccc23)c1	.	.	.	.	-1.3	2.2	-12	0.68	.	-3
CC1=Nc2ccccc2/C1=C/c1sc(=N)n(-c2nccs2)c1O	.	-59	-77	-22	2.8	-0.1	63*	0.78	.	57
Cc1ccccc1NC(=O)COC(=O)C1=COCCO1	i	5	13	0.2	1.0	0.6	.	0.71	4.0	0
COC(=O)Cc1sc(-c2ccccn2)nc1-c1ccccc1	.	.	.	.	0.4	-0.4	1	0.71	.	0
CC(OC(=O)C1CCN(S(=O)(=O)c2ccc3c(c2)OCCO3)CC1)C(=O)NC1(C#N)CCCCC1 (centres undefined)	i	7	-5	0.9	1.4	.	.	0.69	1.9	.
O=C(Cc1ccc2ccccc2c1)NC(Cc1ccccc1)C(=O)O (centres undefined)	i	-2	0	-1.0	0.0	.	.	0.71	-2.9	.
CCC(CO)Nc1ncnc2onc(-c3ccc(F)cc3)c12 (centres undefined)	i	2	5	-0.5	1.9	1.1	-6	0.69	0.4	7
SMILES	FGF22 binding	Ecoli rRNA inh	Ecoli rRNA inh OD600	Ecoli rRNA inh RFP	UCH37 inh	A1 inh	T cruzi inh	Ecoli growth	MLL AF4-AF9 inh	Beta cell apopt
CCN1CCN(Cc2ccc(NC(=O)c3ccc(C)c(NC(=O)c4cc(-c5ccc(Br)cc5)n[nH]4)c3)cc2C(F)(F)F)CC1	i	-46	-75	-11	.	0.1	60*	.	3.1	-1
COCCOCCOCCC(=O)NC1CC2CCC1(C)C2(C)C (centres undefined)	.	.	.	.	0.9	1.5	0	0.74	.	2
COc1cc(Cl)cc(C2NC(=S)NC(c3ccccc3)=C2C(C)=O)c1OCC(=O)O (centres undefined)	.	14	7	-1.7	9.2	2.4	-3	0.67	-3.6	-2
CCc1cccc(NC(=O)CCNS(=O)(=O)c2cccc3nonc23)c1	i	-13	-13	19	3.2	1.7	1	0.67	-1.5	0
COc1ccc(Br)cc1[C@H]1[C@@H]2C=CCC[C@@]2(C)C(=O)N1Cc1ccccc1	i	-13	-16	-14	2.1	-0.1	-15	.	0.2	5
CCOc1ccc2nc(NC(=O)Cn3[nH]c(=O)c4ccccc4c3=O)sc2c1	i	-3	6	-0.7	-0.1	-0.1	-1	0.63	17	0
CC(C)OC(=O)c1c(NC(=O)c2ccco2)sc2c1CCCC2	.	.	.	.	-136	-0.9	14	0.71	.	-5
CC(C)C[C@H](NC(=O)N1CCn2c1nc1ccccc12)C(=O)NC1CCCCC1	i	0	8	-1.1	-1.6	1.2	4	0.69	-0.3	-4
COc1ccc2[nH]c3c(c2c1)CCN1C(=O)C(CC(=O)NCCc2ccccn2)C[C@H](C(=O)N2CCCCC2)[C@@]31C (some centres undefined)	i	1	8	7.2	1.9	.	.	0.68	-0.1	.
NC(=O)C1CCN(Cc2nc3cc(Cl)ccc3c(=O)[nH]2)CC1	.	.	.	.	-1.8	-0.2	1	0.7	.	3
CCOC(=O)C1(CC2CC2)CCN(C(=O)c2cc(OC)nc3ccccc23)CC1	i	-5	-4	-0.5	3.2	-0.1	18	0.67	-3.7	2
Cc1ccc(F)cc1NC(=O)c1cccc(N(C)C)c1	.	.	.	.	-3.4	-0.7	0	0.67	.	-3
CC(=O)c1c(C)nc2ccc(Br)cc2c1-c1ccccc1	i	-44	-58	-9.5	1.2	-0.3	19	0.7	2.1	1
COc1cccc(-c2c(C(=O)N/N=C(\C)c3ccncc3)nnn2-c2nonc2N)c1	i	16	9	3.8	.	-0.5	6	.	-1.5	-11
Cc1cc(NS(=O)(=O)c2ccc(NC(=O)COc3ccc(Cl)c(C)c3)cc2)no1	i	7	8	0.0	4.1	.	8	0.67	-3.3	.
COc1ccccc1C1c2ccc3ccccc3c2Oc2ncn(CCN(C)C)c(=N)c21 (centres undefined)	i	-58	-82	-16	8.3	-0.8	18	0.68	18	45
O=C(Nc1cc(S(=O)(=O)N2CCOCC2)ccc1N1CCCC1)c1cc(=O)[nH]c2ccccc12	i	-5	-1	-4.9	0.8	-0.3	-9	0.65	5.5	2
O=C(Nc1ccc(C(F)(F)F)cc1)c1cccnc1N1CCOCC1	.	.	.	.	1.4	-0.8	-5	0.72	.	5
CCOC(=O)N1CCN(Cc2ccccn2)CC1	.	.	.	.	4.0	0.0	-8	0.68	.	-1
O=c1[nH]c(NCCO)nc2ncn(Cc3ccccc3)c12	.	.	.	.	3.3	0.0	-6	0.72	.	.
COc1ccc(Oc2c(Cl)cnn(-c3ccc(F)cc3)c2=O)cc1	.	.	.	.	1.2	0.1	-8	0.79	.	-20
COc1cc(OC)cc(C(=O)NCC(=O)OCc2nc3ccccc3s2)c1	i	-20	12	15	5.3	0.3	-6	0.67	-0.9	0
Cc1cc(C)nc(OC(=O)c2ccc(Cl)cc2Cl)n1	i	3	8	-1.0	-16	0.0	-16	0.67	-24	85*
Cc1c(NS(=O)(=O)c2ccc(F)cc2)c(=O)n(-c2ccccc2)n1C	i	8	5	1.2	0.0	0.2	3	0.63	2.2	0
CC(=O)N(Cc1ccccn1)Cc1ccco1	i	17	-2	1.1	0.2	0.2	-2	0.71	-1.2	0
CN(C)S(=O)(=O)N1CCN(Cc2ccccc2)CC1	.	.	.	.	4.3	0.1	9	0.68	.	-1
O=C(Nc1cccc(F)c1)Nc1ccccn1	.	.	.	.	6.6	-4.3	-10	0.66	.	0
Cc1nn(C)c(C)c1Sc1ccc(Br)cc1	.	.	.	.	0.8	0.1	14	0.66	.	-1

Some of the entries so far, as a markdown table.
| Structure | FGF22 binding | Ecoli rRNA inh | Ecoli rRNA inh OD600 | Ecoli rRNA inh RFP | UCH37 inh | A1 inh | T cruzi inh | Ecoli growth | MLL AF4-AF9 inh | Beta cell apopt |
| --- | --- | --- | --- | --- | --- | --- | --- | --- | --- | --- |
| O=C(Nc1cc(S(=O)(=O)N2CCOCC2)ccc1N1CCCC1)c1cc(=O)[nH]c2ccccc12 | i | -5 | -1 | -4.9 | 0.8 | -0.3 | -9 | 0.65 | 5.5 | 2 |
| O=C(Nc1ccc(C(F)(F)F)cc1)c1cccnc1N1CCOCC1 | . | . | . | . | 1.4 | -0.8 | -5 | 0.72 | . | 5 |
| CCOC(=O)N1CCN(Cc2ccccn2)CC1 | . | . | . | . | 4.0 | 0.0 | -8 | 0.68 | . | -1 |
| O=c1[nH]c(NCCO)nc2ncn(Cc3ccccc3)c12 | . | . | . | . | 3.3 | 0.0 | -6 | 0.72 | . | . |
| COc1ccc(Oc2c(Cl)cnn(-c3ccc(F)cc3)c2=O)cc1 | . | . | . | . | 1.2 | 0.1 | -8 | 0.79 | . | -20 |
| COc1cc(OC)cc(C(=O)NCC(=O)OCc2nc3ccccc3s2)c1 | i | -20 | 12 | 15 | 5.3 | 0.3 | -6 | 0.67 | -0.9 | 0 |
| Cc1cc(C)nc(OC(=O)c2ccc(Cl)cc2Cl)n1 | i | 3 | 8 | -1.0 | -16 | 0.0 | -16 | 0.67 | -24 | 85* |
| Cc1c(NS(=O)(=O)c2ccc(F)cc2)c(=O)n(-c2ccccc2)n1C | i | 8 | 5 | 1.2 | 0.0 | 0.2 | 3 | 0.63 | 2.2 | 0 |
| CC(=O)N(Cc1ccccn1)Cc1ccco1 | i | 17 | -2 | 1.1 | 0.2 | 0.2 | -2 | 0.71 | -1.2 | 0 |
| CN(C)S(=O)(=O)N1CCN(Cc2ccccc2)CC1 | . | . | . | . | 4.3 | 0.1 | 9 | 0.68 | . | -1 |
| O=C(Nc1cccc(F)c1)Nc1ccccn1 | . | . | . | . | 6.6 | -4.3 | -10 | 0.66 | . | 0 |
| Cc1nn(C)c(C)c1Sc1ccc(Br)cc1 | . | . | . | . | 0.8 | 0.1 | 14 | 0.66 | . | -1 |

Looked up above.
COc1cc(Cl)cc(C2NC(=S)NC(c3ccccc3)=C2C(C)=O)c1OCC(=O)O (centres undefined) in UCH37 inh → 9.2
CCOC(=O)C1(CC2CC2)CCN(C(=O)c2cc(OC)nc3ccccc23)CC1 in Ecoli rRNA inh RFP → -0.5

Screens: PubChem, several laboratories

Not all compounds are listed, so the mix of outcomes need not match the whole.
